Rce1 inh – yeast Rce1p protease inhibitors, primary screen, biochemical, fluorescence, cell-free homogeneous | CAAX prenyl protease 2 (Saccharomyces cerevisiae (strain ATCC 204508 / S288c)), Q03530 | yeast membranes, quenched prenylated peptide cleavage fluorescence | calls only | 0.27% of 290,000 active | AID 2563, 2010;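 active = fall in fluorescence gain of 50% or more versus controls, with final raw signal at or below 3038400; inconclusive = same 50% fall but final raw signal above 3038400; inactive = fall in fluorescence gain under 50%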;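 also: plate controls were neutral control wells for no effect and wells lacking membranes for full effect; tested at 10 µM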
eIF4H FP inh – human eIF4H binding inhibitors, primary screen, translation initiation inhibitor project, biochemical, uHTS, fluorescence polarization | Eukaryotic translation initiation factor 4H (Homo sapiens), Q15056 | eIF4H fluorescence polarization binding assay | inhibition, % at 35 µM | 0.94% of 290,000 active | AID 2012, 2009;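 active = 50% or more with normal probe brightness, or confirmed in later tests; inconclusive = above 50% with abnormal brightness, or retests that disagree; inactive = below 50% or failed in later tests; about a fifth of its hits are not listed in these tables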;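 also: calls also rest on retests at 20 µM and on dose response follow-up; 0% = protein and probe with vehicle and 100% = probe without protein; strong numbers were not always called active; many hits fall short of the cut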
Yeast UUG start – modulators of yeast start codon fidelity, primary screen, whole organism, S. cerevisiae, single point, plate reader. S. cerevisiae UUG-firefly luciferase reporter, luminescence/redox ratio. activity score, % at 18.7 µM. 0.13% of 350,000 active. AID 602363, 2012;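 active = replicate mean at a twofold rise or more, about +100% in these data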;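 also: firefly luciferase made from a UUG start codon reports start codon fidelity; reporter light over untreated wells divided by growth signal over untreated wells; some hits fall short of that in this replicate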
MT1-MMP act inh – blockers of MT1-MMP proenzyme processing, primary screen, HT1080 RFP-PRO-GFP cells, GFP/RFP fluorescence; Matrix metalloproteinase-14 (Homo sapiens), P50281; GFP/RFP ratio fluorescence, overnight; percent of plate control window, DMSO zero; GFP/RFP ratio change, % at 20 µM; 0.061% of 360,000 active;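 active = GFP/RFP ratio change of at least 30% with cell ATP level not reduced by more than half and red fluorescence within 50% of control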; also: strong numbers were not always called active
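Material: RFP-PRO-GFP reporter HT1080 cells. Dosing: single-point 20 µM compound, 1% DMSO. Controls: DMSO and RFP-L50D-GFP cell wells. Timing: cells overnight before dosing, compound overnight, 37 °C, 5% CO2. Measure: GFP/RFP fluorescence ratio.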
Env fusion inh – inhibitors of HIV-1 Env-driven cell-cell fusion, primary screen, HeLa-JRFL effector, CEM21 target cells, luciferase; inhibition, % at 12.3 µM; 1.1% of 360,000 active; AID 651610, 2012;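 active = mean replicate inhibition score of at least 50 and every replicate individually at or above 50; inconclusive = only one of the two criteria met; inactive = mean below 50 and not all replicates reaching 50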;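 also: 0% = plate neutral controls and 100% = maraviroc near 300 nM; one replicate is shown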
CSC inhib – cancer stem cell viability inhibitors, primary screen, luminescence. cancer stem cell-like cells viability. inhibition, % at 7.5 µM. 1.1% of 300,000 active. AID 2717, 2010;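 active = mean at 75% or more and at least half the replicates too; inconclusive = mean and replicates disagree; tested in HMLE shEcad cells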;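 also: 0% = median of negative and 100% = median of positive control wells; the first replicate is given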
PABP polyA inh – PABP poly(A) RNA binding inhibitors, primary screen, biochemical, fluorescence polarization, uHTS; Polyadenylate-binding protein 1 (Homo sapiens), P11940; inhibition, % at 35 µM; 1% of 290,000 active;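 active = 50% or more with normal probe brightness, or confirmed in later tests; inconclusive = above 50% with abnormal brightness, or retests that disagree; inactive = below 50% or failed in later tests; about a fifth of its hits are not listed in these tables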;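 also: calls also rest on retests at 20 µM and on dose response follow-up; controls were probe without protein and protein plus probe with vehicle; some compounds called inactive have numbers as strong as hits; many hits fall short of the cut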
Target sequence (P11940 whole entry, looked up): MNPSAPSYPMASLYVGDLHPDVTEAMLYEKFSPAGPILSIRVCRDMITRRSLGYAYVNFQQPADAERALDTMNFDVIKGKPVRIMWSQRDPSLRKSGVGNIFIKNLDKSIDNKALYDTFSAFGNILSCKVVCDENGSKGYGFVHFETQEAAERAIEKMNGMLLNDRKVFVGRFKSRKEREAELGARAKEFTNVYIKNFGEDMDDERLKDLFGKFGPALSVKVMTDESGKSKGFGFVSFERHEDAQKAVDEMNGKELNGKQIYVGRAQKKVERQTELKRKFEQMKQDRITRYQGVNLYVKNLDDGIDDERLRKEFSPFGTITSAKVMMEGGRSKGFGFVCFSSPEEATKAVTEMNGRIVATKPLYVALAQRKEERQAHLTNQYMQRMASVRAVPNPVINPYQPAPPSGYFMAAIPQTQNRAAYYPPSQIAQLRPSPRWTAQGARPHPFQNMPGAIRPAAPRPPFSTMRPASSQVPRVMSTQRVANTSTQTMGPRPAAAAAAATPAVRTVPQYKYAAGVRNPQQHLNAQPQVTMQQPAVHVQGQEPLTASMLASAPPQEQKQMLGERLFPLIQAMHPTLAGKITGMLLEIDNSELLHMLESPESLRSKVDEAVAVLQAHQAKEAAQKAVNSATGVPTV
eIF4H FP inh retest – further read-out of eIF4H FP inh, marked with its call; inhibition, %; compound at 20 µM; confirmation average;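 mean of two retest wells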
PABP polyA inh retest – recorded beside PABP polyA inh, whose call it bears; inhibition, %; compound at 20 µM; confirmation repeats;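 mean of two retest wells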
MT1-MMP act inh RFP – also measured in MT1-MMP act inh; calls as there; RFP signal change, %; measured here: RFP expression control read;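 0 = vehicle wells; hits needed this value within 50% of zero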
* marks the source's active call; other numbers are inactive results; i = inactive; ? = inconclusive; . = not tested or not shown. An excerpt; the hit share may differ from the screen's.

SMILES	Rce1 inh	eIF4H FP inh	Yeast UUG start	MT1-MMP act inh	MT1-MMP act inh RFP	Env fusion inh	CSC inhib	PABP polyA inh	others
CCOC(=O)C1(CCCc2ccccc2)CCN(C(=O)COC)CC1	i	-1	19	0	2	13	-14	10
CCCS(=O)(=O)NC(=O)C1(C)CCCN(C(=O)c2ccc(SC(F)(F)F)cc2)C1 (stereo not given)	.	.	-19	-2	2	3	.	.
Cc1nn(Cc2ccc(Cl)cc2)c(C)c1NC(=O)c1ccc([N+](=O)[O-])cc1	i	-1	-4	1	-11	.	8	-8
C=CCC(=O)N1CCCC(CCC(=O)NCc2ccccc2F)C1 (stereo not given)	i	-10	.	-1	2	-25	-10	0
COc1ccc(C2C(C#N)=C(N)OC3=C2C(=O)CC(C)(C)C3)cc1 (stereo not given)	i	2	.	6	7	2	42	-1
COc1ccc(CNC(=O)Cn2nc(C)c3c(C)n(-c4ccc(C)cc4)nc3c2=O)cc1OC	i	.	-13	6	-23	13	4	.
O=C(NCc1cccc(F)c1F)C1CCC(=O)N(C2CCCCCC2)C1 (stereo not given)	i	18	3	-2	-1	-4	-7	9
CC(=O)N1CCN(c2ccc(NCc3ccc4c(c3)OCO4)cc2)CC1	i	12	-15	9	6	6	-10	2
CCN1C(=O)N[C@@H](CCc2ccccc2)[C@H](C(C)=O)[C@H]1C	i	.	14	2	2	-1	-14	.
Cc1ccc(S(=O)(=O)Cc2ccc(C(=O)NC3CCCC3)o2)cc1	i	20	-3	-1	2	2	-24	7
Cn1nc(C(=O)N2CCCCC2)c2c1-c1ccccc1S(=O)(=O)C2	i	-13	-16	0	3	-11	-10	-1
CN(CC(=O)Nc1ccccc1Cl)C(=O)COC(=O)C1CCN(c2ccc(C(F)(F)F)cn2)CC1	i	.	.	1	-3	-1	-1	.
Cc1ccc(-n2cc(C(=O)c3ccc(F)cc3)nn2)cc1Cl	i	2	-18	5	9	.	-5	-5
Cc1cc(C)cc(Nc2cnn(C34CC5CC(CC(CC(=O)O)(C5)C3)C4)c(=O)c2Cl)c1	.	-8	-21	1	0	-4	-1	61	eIF4H FP inh retest=44;PABP polyA inh retest=42
O=C1CCCc2[nH]nc(-c3cccnc3)c21	i	-8	12	-1	-2	-46	-3	-7
C[N+](C)(C)C(Cc1ccccc1)C(=O)[O-] (stereo not given)	i	-3	-12	1	3	.	-2	4
C=CCNC(=O)c1oc2ccc(S(=O)(=O)N(CC)CC)cc2c1C	i	-2	-1	1	-1	27	-4	5
COc1ccc(CN2CCN(C3CCC3)CC2CCO)c(F)c1 (stereo not given)	i	-8	-8	1	3	1	.	-2
COc1ccc(S(=O)(=O)Nc2c(C(=O)O)[nH]c3ccccc23)cc1	i	11	-16	0	5	0	-10	-5
Cc1ccc(NC(=O)CO/N=C(\N)c2nonc2N)cc1	i	1	-12	6	3	-93	-10	11

Among those listed so far, four have an aryl methoxy group:
SMILES	Rce1 inh	eIF4H FP inh	Yeast UUG start	MT1-MMP act inh	MT1-MMP act inh RFP	Env fusion inh	CSC inhib	PABP polyA inh	others
COc1ccc(C2C(C#N)=C(N)OC3=C2C(=O)CC(C)(C)C3)cc1 (stereo not given)	i	2	.	6	7	2	42	-1
COc1ccc(CNC(=O)Cn2nc(C)c3c(C)n(-c4ccc(C)cc4)nc3c2=O)cc1OC	i	.	-13	6	-23	13	4	.
COc1ccc(CN2CCN(C3CCC3)CC2CCO)c(F)c1 (stereo not given)	i	-8	-8	1	3	1	.	-2
COc1ccc(S(=O)(=O)Nc2c(C(=O)O)[nH]c3ccccc23)cc1	i	11	-16	0	5	0	-10	-5

(further entries)
SMILES	Rce1 inh	eIF4H FP inh	Yeast UUG start	MT1-MMP act inh	MT1-MMP act inh RFP	Env fusion inh	CSC inhib	PABP polyA inh	others
Cc1nc(SC(C)C(=O)Nc2c(C)n(C)n(-c3ccccc3)c2=O)nc(C)c1C (stereo not given)	.	.	-5	0	-1	.	-15	.
COc1ccc(CNC(=O)C2(CC3CC(c4ccccc4)=NO3)CCN(C(=O)Cc3ccc(F)cc3)CC2)cc1 (stereo not given)	i	.	-7	3	-3	-10	12	.
CCN(C(=O)c1cccc(S(=O)(=O)N2CCCCC2)c1)C1CCS(=O)(=O)C1 (stereo not given)	i	.	.	2	4	6	.	.
CCOc1ccc(N(C)S(=O)(=O)c2ccc(-c3ccc(=O)[nH]n3)s2)cc1	i	9	-25	4	3	6	-3	-11
O=C(CSc1nc2ccccc2c(=O)n1-c1ccccc1Cl)Nc1cccc(S(=O)(=O)N2CCOCC2)c1	i	-8	-13	-3	-5	.	.	13
CN(C)c1nc2ncn(Cc3ccccc3)c2c(=O)[nH]1	i	-10	.	3	5	0	-6	-4
COc1cccc(CC(=O)Nc2ccc(S(=O)(=O)Nc3nc(C)cc(C)n3)cc2)c1	i	0	-14	2	3	0	-8	-4
O=C(COC(=O)C1CCN(S(=O)(=O)c2cccc3cccnc23)CC1)c1ccc([N+](=O)[O-])cc1	i	-4	.	-1	3	.	-9	-4
CCCCN(CCCC)C(=S)NC(=O)c1ccccc1Cl	i	-4	-17	7	0	-2	9	-1
Cc1ccc(C(=O)Nc2ncc(Cc3ccccc3)s2)o1	i	-10	-62	1	-6	-348	97*	2
O=C(CN1C(=O)NC2(CCCCC2)C1=O)Nc1cccc(S(=O)(=O)N2CCOCC2)c1	i	-2	-19	8	6	8	10	-6
Cc1ccc(C(C)C)c(OCC(=O)Nn2c(C)nc3ccccc3c2=O)c1	i	-5	3	1	1	.	9	12
COc1cc(CC(=O)Nc2cccc(SC)c2)cc(OC)c1OC	i	4	.	-4	-23	23	3	-2
CC(=O)c1ccc(S(=O)(=O)N2CCN(c3nc4c(C)c(C)ccc4cc3C#N)CC2)cc1	i	.	-12	3	-17	83*	2	.
CC(C)N1CCc2c(sc(NC(=O)c3ccc(S(=O)(=O)N4CCCCC4C)cc3)c2C(N)=O)C1 (stereo not given)	i	3	11	-19	2	-3	.	-19
COc1ccc(CCNC(=O)c2ccc3c(c2)N(Cc2ccc(C)cc2)CCS3)cc1OC	i	7	2	-9	-10	.	-8	8
Cc1ccc(NC(=O)COC(=O)C2CCC(=O)N2)c([N+](=O)[O-])c1 (stereo not given)	i	-5	.	1	5	6	7	-3
COc1ccc(S(=O)(=O)NC2CCCC2)c(OC)c1	i	-5	-8	2	1	14	-6	-7
COc1cc(NC(=O)CCc2nnc3ccc(NCc4ccco4)nn23)cc(OC)c1	i	-7	-25	1	1	4	-14	3
CCSc1oc(-c2ccco2)nc1S(=O)(=O)c1ccc(C)cc1	.	1	8	-3	0	-11	-3	-1
CSc1nncn1/N=C/c1ccc([N+](=O)[O-])cc1	i	-3	.	-1	4	11	13	3
S=c1[nH]c(-c2ccccc2)cn1/N=C/c1cccnc1	i	3	.	5	5	-4	-13	4
OCCNc1nc(Nc2ccc(Cl)cc2)nc(N2CCCC2)n1	i	.	-3	4	-2	1	12	.
COc1cc2c(cc1NC(=O)c1cccnc1)oc1ccccc12	i	-2	-20	2	0	.	-7	-10
Cc1ccc2nc3sc(C(=O)NCc4ccco4)c(N)c3cc2c1	i	31	-32	-8	7	.	12	6
COc1ccccc1NCC(=O)c1ccc(Cl)cc1	i	17	-19	3	3	8	5	2
O=C(COC(=O)C1C2CC3OC(=O)C1C3C2)Nc1ccccc1 (stereo not given)	i	12	-1	1	2	-3	3	16
CC1CC(NC(=O)c2c(O)nc3sccn3c2=O)CC(C)(C)C1 (stereo not given)	i	.	.	-13	-11	.	5	.
CCc1cc(=O)oc2cc(C)cc(OCC(=O)N[C@@H](CSCc3ccccc3)C(=O)O)c12	i	0	-10	1	3	.	-12	-7
O=C1C2C(C(=O)N1c1ccncc1)C1C=CC2C12CC2 (stereo not given)	i	-4	-15	-6	1	.	-10	6
COc1ccc([N+](=O)[O-])cc1N(CC(=O)NCCC1=CCCCC1)S(C)(=O)=O	i	-3	.	-2	1	22	-14	6
CN(C(=O)COc1ccc2ccc(=O)oc2c1)C1CCS(=O)(=O)C1 (stereo not given)	i	0	-19	.	.	-2	7	-3
O=c1c2ccccc2nc(/C=C/c2ccc(Br)cc2)n1CCO	i	.	12	5	1	15	78*	.
CCOc1ccc(OCC)c(Nc2cc(C)nc3nc(C)nn23)c1	i	-1	-12	-3	-2	-469	16	21
CC1=CS(=O)(=O)CC1Sc1nc2ccccc2[nH]1 (stereo not given)	i	0	-21	-5	0	.	-10	12
COc1ccc(NC(=O)c2c(NC(=O)CCC(=O)O)sc3c2CCCCC3)cc1	i	8	.	1	4	4	-7	17
CN1CCN(C(CNC(=O)C(=O)Nc2ccc3c(c2)OCO3)c2ccc(F)cc2)CC1 (stereo not given)	i	.	-17	-1	-1	-2	-6	.
O=C(CCC(=O)OCC(=O)c1ccc(-c2ccccc2)cc1)Nc1cccc2cccnc12	i	-5	1	-1	1	.	-9	-9
CCn1c(C)nc2cc(C(=O)OC(C(F)(F)C(F)F)C(F)(F)C(F)F)ccc21	i	-5	-8	2	3	-35	37	-8
CC1CCCN(C(=O)c2cccc(S(=O)(=O)NCc3ccccc3)c2)C1 (stereo not given)	.	.	2	1	-1	2	.	.
CCCNS(=O)(=O)c1ccc(OCC(=O)N(C)Cc2ccccc2)cc1	i	6	-18	0	-1	-9	15	2
CC(C)CN(C(=O)CN(C)CC(=O)Nc1ccccc1C#N)c1c(N)n(CC(C)C)c(=O)[nH]c1=O	.	.	2	-8	2	-5	-16	.
COc1cccc(N2CCN(CC(=O)c3c[nH]c4ccc(OC)cc34)CC2C)c1 (stereo not given)	i	-1	8	0	0	.	-9	-5
COCC(=O)Nc1sc2c(c1C(=O)OC)CCC(C)C2 (stereo not given)	i	-7	1	5	2	-75	1	-8
Cc1c(Cc2ccccc2)c(=O)oc2c(C)c(OC(C)C(=O)N[C@@H](Cc3ccccc3)C(=O)O)ccc12 (stereo not given in full)	i	52	15	3	1	.	-6	12	eIF4H FP inh retest=21;PABP polyA inh retest=16
Cc1cc(C)c(C(=O)COC(=O)c2ccc([N+](=O)[O-])o2)cc1C	i	-3	.	2	-1	-6	1	0
CCOc1ccc(CNC(=O)c2ccc3c(c2)N(CC)CCS3)cc1	i	-5	-9	-2	-1	-8	4	-14
Cc1ccc(CNc2oc(-c3cccs3)nc2C#N)cc1	?	0	-17	0	3	-5	0	2
COc1ccc(C(=O)CN2C(=O)NC(C)(c3ccc(C)cc3)C2=O)cc1OC (stereo not given)	i	-3	3	6	2	.	-11	14
COCOc1cc(O)c(C(=O)/C=C/c2ccccc2)c(OCOC)c1	i	.	-11	-2	-15	.	14	.
COC(=O)CCn1nc(-c2ccc(Cl)cc2)c2ccccc2c1=O	i	-13	.	-3	-1	2	-16	1
CC(C)(C)c1ccc(/C=C/C(=O)N2CCc3ccccc3C2)cc1	i	-6	-18	-4	-2	.	.	24
COC(=O)n1ccc(C(=O)Nc2ccccc2F)n1	i	-12	-15	0	-2	-45	-9	2
